HPGD inh – blocks human HPGD enzyme activity | Potency, µM, for the others: top-dose activity change, negative = inhibition, most hits filed as inhibitors | hit rate 4.3% among 150,000 | purified HPGD, NADH fluorescence kinetic, PGE2 substrate | AID 894 | P15428; active = well fitted inhibition curve with a large enough effect (not every such curve was filed as active); inconclusive = small, poorly fitted or top-dose-only effect, or another doubt; inactive = no such curve, though single readings can be large or run the other way;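 also: top concentration of the series not given in the record; plate controls included wells without enzyme; inactives centre near -10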
Target sequence (P15428 whole entry, looked up): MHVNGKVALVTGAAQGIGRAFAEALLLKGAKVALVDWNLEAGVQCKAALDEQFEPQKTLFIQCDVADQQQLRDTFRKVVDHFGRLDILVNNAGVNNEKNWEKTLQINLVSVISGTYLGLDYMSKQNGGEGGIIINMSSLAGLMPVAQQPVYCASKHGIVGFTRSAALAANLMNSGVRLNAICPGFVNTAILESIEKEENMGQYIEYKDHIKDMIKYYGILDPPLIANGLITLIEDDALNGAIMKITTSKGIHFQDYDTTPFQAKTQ
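NADH formation kinetics: reaction with 30 uM PGE2 and 1 mM NAD+ (final), 20 nM enzyme, Tris-HCl pH 8 with Tween 20, after 15 min compound preincubation at room temperature. Fluorescence change, last versus first of five reads.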
Starred values were filed as active, the others as inactive; ? = inconclusive. % is scaled to controls: 0 for no effect and ±100 for the full control effect; potency is read from the fitted curve at half-maximal effect. Only part of the results is shown, so the mix of outcomes need not match the whole.

nr | SMILES | HPGD inh
1 | COc1ccc(C2NC(=O)N(C)C3=C2C(=O)CC(C)(C)C3)cc1OC (configuration not stated) | 0%
2 | CCOCCCNS(=O)(=O)c1ccc2c(c1)CCN2C(C)=O | -14%
3 | Cn1cccc1/C=C1\SC(=S)N(NC(=O)c2cccc(Cl)c2)C1=O | -17%
4 | Nc1nonc1-c1nc2ccccc2n1CC(=O)O | -10%
5 | C/C(N)=C(/C#N)C(=O)COC(=O)C1Cc2ccccc2CN1S(C)(=O)=O (configuration not stated) | -12%
6 | O=C(O)CNS(=O)(=O)c1cc(Cl)c(Cl)cc1Cl | -13%
7 | CCOC(=O)c1c(NC(=O)N/N=C/c2ccccc2OCC)sc(C(C)=O)c1C | -18%
8 | Cc1cc(NC(=O)c2cc(CC(C)C)on2)no1 | -13%
9 | CCN1CCN(CCCNC(=O)c2ccc3c(c2)NC(=O)c2ccccc2S3)CC1 | -6%
10 | CSCCC(C(=O)Nc1ccc2c(c1)OCO2)N1C(=O)c2ccccc2C1=O (configuration not stated) | 1%
11 | Clc1ccccc1OCc1nn2c(-c3ccncc3)nnc2s1 | 4µM*
12 | CC(C)(C)c1ccc(C(=O)Oc2ccc3c(c2)OCC3=O)cc1 | -16%
13 | CCCS(=O)(=O)N1CCC(C(=O)N2CCN(Cc3ccccc3)CC2)CC1 | 2%
14 | COc1ccc(-n2cnnc2SCC(=O)Nc2cccc(S(=O)(=O)N3CCCCC3)c2)cc1 | -9%
15 | CCOC(=O)/C(=C\Nc1ccccc1C(F)(F)F)Sc1ncc(C(F)(F)F)cc1Cl | -18%
16 | COCCn1c(SCc2cc(C(C)=O)ccc2OC)nc2cc(Cl)ccc2c1=O | -3%
17 | CC(=O)N1CCc2cc(S(=O)(=O)N3CCc4ccccc4C3)ccc21 | -13%
18 | CCOC(=O)C1=C(CNCc2ccc(C)cc2)NC(=O)NC1c1ccc(OC)cc1 (configuration not stated) | 3%
19 | CCCCSc1nnc(CCC)n1N | 2%
20 | CC1C(=O)CCC1(C(=O)O)c1ccccc1 (configuration not stated) | -8%
21 | CCOC(=O)c1c(C)[nH]c(C(=O)CN2C(=O)NC(C)(c3ccc(C)cc3)C2=O)c1C (configuration not stated) | -30%
22 | COc1ccc(OC2OC3COC(C)(C)OC3C(O)C2NC(C)=O)cc1 (configuration not stated) | -15%
23 | O=C(c1cc2c(s1)CCCC2)n1cccn1 | 16µM*
24 | Cc1cccc(C)c1NC(=O)CSc1nnc(-c2ccncc2)n1Cc1ccco1 | -9%
25 | O=C1C=C(NCCN2CCOCC2)CC(c2ccccc2)C1 (configuration not stated) | 3%
26 | CC(C)N=C(NC#N)SCC(=O)NC(C)(C)C | -3%
27 | CCSc1nnc(NC(=O)Cc2ccc(OC)cc2)s1 | -3%
28 | COc1cccc(C(=O)N2CCN(Cc3ccccc3C(F)(F)F)CC2)c1 | 2%
29 | COC(=O)NCC(c1cccnc1)N1CCN(c2ccccc2OC)CC1 (configuration not stated) | -7%
30 | COCCNC(=O)CCCn1c(=O)c2ccccc2n(CC(=O)NCCC2=CCCCC2)c1=O | -6%
31 | O=C(CSC1=Nc2ccccc2C2=NC(Cc3c[nH]c4ccccc34)C(=O)N12)NC1CCCCC1 (configuration not stated) | -11%
32 | Cc1nc(SCc2ccccc2C)n[nH]1 | -1%
33 | CN(C)/C(=N\OC(=O)c1ccccc1)c1nonc1N | -5%
34 | O=C(CN1CCN(Cc2ccc(Cl)cc2)C1=O)NCCCN1CCOCC1 | 4%
35 | COc1ccc(-n2ncc3c(N4CCCCC4)ncnc32)cc1 | ?
36 | O=c1c2sccc2n(Cc2cccc(F)c2)c(=O)n1-c1ccc(F)cc1 | 4%
37 | O=C(NC(=S)Nc1ccc(Br)cn1)c1cncc(Br)c1 | -11%
38 | CC/S(CC1CC1(Cl)Cl)=N\S(=O)(=O)c1ccc(C)cc1 (configuration not stated) | -10%
39 | O=c1c2ccccc2nc2n1CCC2 | -15%
40 | Cc1c(Cl)c(-c2n[nH]c(=S)n2-c2ccccc2)nn1C | -17%
41 | O=C(c1ccco1)N(Cc1nc2ccccc2c(=O)[nH]1)C1CCCC1 | 0%
42 | Cc1nc2c(C(=O)NCc3ccco3)cnn2c(C)c1Cc1ccc(F)cc1Cl | ?
43 | Cc1ccc(-c2nnc(-c3cccc(Br)c3)o2)cc1 | -8%
44 | COc1ccc(-c2c3c(cc(C)[n+]2[O-])oc2ccc(OC)cc23)cc1 | -9%
45 | Cc1ccccc1CN(c1ccc(C(N)=O)cc1)S(C)(=O)=O | 2%
46 | Cc1nc(-c2cccc(S(=O)(=O)N3CCOCC3)c2)cs1 | 25µM*
47 | Cc1nn(Cc2ccc(C(=O)Nc3nccs3)cc2)c(C)c1Cl | -9%
48 | COc1cnn(-c2ccc(Br)cc2)c(=O)c1SCc1ccccc1 | -5%
49 | O/N=C(\c1ccc2c(c1)OCCO2)C1CCCCC1 | -24%
50 | O=C(NNC(=S)NCc1ccco1)c1ccc(Cl)s1 | 0%
51 | CCOC(=O)c1cnn2c(C)cc(-c3ccc(F)cc3)nc12 | ?
52 | O=C(NCCCN1CCN(CCCNC(=O)c2ccc3c(c2)OCO3)CC1)c1ccc2c(c1)OCO2 | -18%
53 | C/C(=N\OC(=O)c1cccc(C)c1)c1sc(-c2ccccc2)nc1C | -14%
54 | CC(C)C(=O)Nc1nnc(SCC(=O)Nc2ccc3c(c2)OCO3)s1 | -26%
55 | Cc1noc(C)c1C(=O)OCC(=O)NCCC1=CCCCC1 | -3%
56 | COc1cccc2cc(C(=O)N3CCCCC3C)c(=O)oc12 (configuration not stated) | 16µM*
57 | CCCCc1c(C)nc(N)[nH]c1=O | -2%
58 | O=c1n(CCCN2CCN(c3cccc(Cl)c3)CC2)nc2ccccn12 | ?
59 | CC(C)n1c(SCC(=O)NCc2ccco2)nc2c1c(=O)n(C)c(=O)n2C | -16%
60 | O=C(Nc1cccc(Cl)c1)Nc1nnc(CSCCOc2ccc(Cl)cc2)s1 | -2%

The results go on.
nr | SMILES | HPGD inh
61 | Cn1c(CN2CCCCC2)nc2cc(NC(=O)c3cccs3)ccc21 | -5%
62 | CS(=O)(=O)N(CC(=O)N/N=C/c1ccco1)c1ccccc1Br | -4%
63 | Cc1ccc(N2C(=O)CC(N(CCc3ccccc3)C(=S)Nc3ccc(N(C)C)cc3)C2=O)cc1 (configuration not stated) | -15%
64 | CCCc1cc(C(=O)NCc2ccccc2)no1 | -12%
65 | O=C(Cc1ccccc1)N/N=C/c1ccc(-c2ccc([N+](=O)[O-])cc2)o1 | -16%
66 | Cc1cccc(C)c1OC(=O)C(c1ccccc1)c1ccccc1 | -13%
67 | COCCN(Cc1cc2cc(C)ccc2nc1Cl)C(=O)Nc1ccccc1C | -3%
68 | CCOc1ccccc1NC(=O)Cn1c(=O)n(-c2ccccc2)c(=O)c2oc3ccccc3c21 | -17%
69 | O=C(CSc1nnc(COc2cccc3cccnc23)o1)N1CCc2ccccc21 | -12%
70 | Cc1cc(C)c(OCCCCNCc2ccccc2)c(Cl)c1 | -3%
71 | COc1ccccc1C(=O)OCCN1CCOCC1 | -4%
72 | O=C1Nc2cc(C(=O)N3CCOCC3)ccc2SC1N1CCOCC1 (configuration not stated) | -22%
73 | COc1ccc(OCC(=O)NNC(=O)c2cc3ccccc3o2)cc1 | -11%
74 | O=C(NNC1=NCCCCC1)c1ccccc1 | 14µM*
75 | CCN1C(=O)N[C@@H](CCc2ccccc2)C(C(C)=O)=C1C | 1%
76 | Cn1c(=S)n(/N=C/c2ccc3c(c2)OCO3)c2ccccc21 | -9%
77 | Cc1cc2c(c(SCC(=O)NCCc3ccccc3)n1)C(=O)OC2 | -13%
78 | Cc1c(Cc2ccccc2)sc(N)c1C(N)=O | 28µM*
79 | CC(=O)OCC(=O)NCC(=O)c1c[nH]c2ccccc12 | 16µM*
80 | Cc1ccc(NC(=O)CN(C)C(=O)CSc2nncn2C)cc1 | -9%
81 | C=CC(O)(C#CCN(CC)CC)c1ccccc1 (configuration not stated) | 1%
82 | Oc1ccc(C2C(c3ccccc3)=NN=C(c3ccc(Cl)cc3)N2O)c(O)c1 (configuration not stated) | -4%
83 | CNC(=O)CCn1nc(-c2ccccc2)c2ccccc2c1=O | -2%
84 | O=C(Nc1ccc(O)c(-c2nc3ccccc3o2)c1)C1(c2ccc(Br)cc2)CCCC1 | -7%
85 | CCCCSC1=C(C#N)C(c2ccccc2C)CC(=O)N1 (configuration not stated) | ?
86 | O=C(CCCN1C(=O)c2cccnc2C1=O)N1CC(=O)N(CCc2ccccc2)C(=O)C1 | -9%
87 | CN1C[C@@H]2C(c3ccc(Cl)nc3)C3(c4cccnc4)CC2(C3)[C@H]1c1ccccc1 (some centres not stated) | -11%
88 | C=CCn1c(-c2ccc(N)cc2)nc2ccccc21 | ?
89 | Cc1c(Cl)cccc1NC(=O)Cn1cccc1 | 18µM*
90 | Cc1cc(N2CCOCC2)nc2cc(O)ccc12 | ?
91 | O=C(Nc1ccccc1)N1CCn2c(nc3ccccc32)C1 | -1%
92 | Cc1ccc2occ(/C=N/NC(N)=S)c(=O)c2c1 | -21%
93 | CCOCCOC(=O)C1=C(C)N(C)C(=O)NC1c1cc(Cl)c(O)c(OCC)c1 (configuration not stated) | -7%
94 | Nc1nc(-c2ccc3c(c2)OCCO3)cs1 | -13%
95 | Cn1nnnc1SCC(=O)Nc1ccc(Oc2ccccc2)cc1 | -14%
96 | CN1CCCCC1=NCCCn1cnc2c1c(=O)n(C)c(=O)n2C | -3%
97 | C#CCn1cnc2c(cnn2-c2ccc(C)c(C)c2)c1=O | -16%
98 | COc1cc(NC(=S)NCCN2CCOCC2)cc(OC)c1 | -16%
99 | CCOC(=O)Cn1c(CN2CCN(C(c3ccccc3)c3ccccc3)CC2)nc2c1c(=O)n(C)c(=O)n2C | -8%
100 | CCOC(=O)c1c(NC(=O)Cn2cnc([N+](=O)[O-])n2)sc2c1CCC(C)C2 (configuration not stated) | -4%
101 | CCOC(=O)c1c(C)oc2c1c(C(c1cccnc1)N1CCOCC1)c(O)c1ccccc12 (configuration not stated) | 22µM*
102 | O=C(Cl)c1c(Cl)cccc1Cl | -7%
103 | N#CCCn1c(=O)c(CCc2ccccc2)nc2cnc(N3CCOCC3)nc21 | ?
104 | Cc1ccc(C(=O)N2CCN(C3CCCCC3)CC2)s1 | ?
105 | COc1ccc(NC(=S)N(CCN(C)C)C(C)c2ccco2)cc1 (configuration not stated) | -4%
106 | CN1C(=O)c2ccccc2C(C(=O)O)C1c1cccc(Cl)c1 (configuration not stated) | -6%
107 | O=C(CN1C(=O)C2CCCCN2C(=O)c2ccccc21)N1CCCc2ccccc21 (configuration not stated) | -5%
108 | c1ccc(N=P(N2CCOCC2)(N2CCOCC2)N2CCOCC2)cc1 | -3%
109 | Cc1csc(NC(=O)c2cccc(Cn3nc(C)c(Br)c3C)c2)n1 | -16%
110 | O=C1c2ccccc2C(=O)N1CN(C(=O)c1ccccc1[N+](=O)[O-])c1ccc(F)cc1 | -8%
111 | COC(=O)CSc1nnc(CNC(=O)c2cccc(C)c2)n1-c1ccccc1OC | -10%
112 | Cc1ccc(/C=C2/NC(=O)N(c3ccccc3)C2=O)o1 | -21%
113 | Cc1cccc(NC(=O)c2cc3c(n(-c4ccccc4)c2=O)CCCC3=O)n1 | -13%
114 | Cn1c(=O)c2c(nc(CN3CCN(c4ccccc4)CC3)n2CCN2CCOCC2)n(C)c1=O | 2%
115 | O=c1[nH]c(-c2cccs2)nc2ccccc12 | 16µM*
116 | CN1CCN(CCC(=O)N2c3ccccc3Sc3ccc(Cl)cc32)CC1 | 2%
117 | O=C1c2ccccc2C(Cc2ccncc2)(Cc2ccncc2)c2ccccc21 | 10%
118 | C=CCn1c(SCC(=O)c2cc(C)n(CC3CCCO3)c2C)nnc1-c1ccccc1 (configuration not stated) | -2%
119 | Clc1ccc(CN2CCCCCCC2)cc1Cl | -1%
120 | CCOC(=O)C1=C[C@@]2(CC)CCCN3CCc4c(n1c1ccccc41)C32 (some centres not stated) | -5%

In another format: results already given.
111	COC(=O)CSc1nnc(CNC(=O)c2cccc(C)c2)n1-c1ccccc1OC
- HPGD inh: -10%

115	O=c1[nH]c(-c2cccs2)nc2ccccc12
- HPGD inh: 16µM*

119	Clc1ccc(CN2CCCCCCC2)cc1Cl
- HPGD inh: -1%

99	CCOC(=O)Cn1c(CN2CCN(C(c3ccccc3)c3ccccc3)CC2)nc2c1c(=O)n(C)c(=O)n2C
- HPGD inh: -8%

Next part:
nr | SMILES | HPGD inh
121 | O=C(COC(=O)/C=C/c1ccc(Cl)cc1)NCCc1ccccc1 | -17%
122 | Cc1no[n+]([O-])c1COc1cccc(/C=C2\N=C(c3ccccc3)OC2=O)c1 | ?
123 | CC(C)n1c(=S)[nH]c2ccccc2c1=O | -22%
124 | C=C(C)C(=O)c1ccc(F)cc1 | -9%
125 | CCCCOC(=O)c1ccc(NC(=O)C(CCS(C)(=O)=O)NC(C)=O)cc1 (configuration not stated) | -23%
126 | CCN(CC)S(=O)(=O)c1cccc(-c2nnc(C(=O)c3ccc(C(F)(F)F)cc3)o2)c1 | -11%
127 | COC(=O)[C@H]1O[C@@H](c2cc(OC)c(C)c(OC)c2O)[C@H](C)[C@@H](O)[C@H]1C | -8%
128 | O=C(Nc1nccs1)C12CC3CC(C1)CC(C(=O)Nc1nccs1)(C3)C2 | -13%
129 | COc1ccccc1NC(=O)Cn1cnc2c1c(=O)n(C)c(=O)n2C | -10%
130 | CCn1c(CC(=O)Nc2ccc(Cl)c(Cl)c2)nnc1SCc1ccc(Cl)cc1 | -7%
131 | COCc1cc(C)nc(N2CCCCC2)c1C#N | ?
132 | CCOC(=O)c1c(C)c(C(=O)O)n(C)c1C | 0%
133 | Cc1cccc(OC(=O)n2c(=S)oc3cc(Cl)ccc32)c1 | -19%
134 | CCCn1c(SCC(=O)Nc2ccc(OC)cc2)nnc1-c1ccncc1 | -7%
135 | Cc1ccc(C(=O)COC(=O)c2cn(-c3ccccc3)nc2-c2ccccc2)cc1[N+](=O)[O-] | -3%
136 | COc1ccc(CNC(=O)C2CC(c3ccc(OC)cc3)=NO2)cc1 (configuration not stated) | -9%
